# Screens (PubChem)
# KCNQ2 inh: KCNQ2 potassium channel inhibitors, primary screen, cell-based, CHO-K1, FluxOR thallium flux, B-score (AID 2156); B-score at 10 µM; 20 min; active compounds read low; only compounds with negative scores are shown here; some inactives read as strong as hits; 1.1% of 310,000 active;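 active = fluorescence ratio B-score at most minus 3 library SDs, with starting brightness B-score within 2 library SDs, cut at about -5.5 in these data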
# Target sequence (O88943 whole entry, looked up): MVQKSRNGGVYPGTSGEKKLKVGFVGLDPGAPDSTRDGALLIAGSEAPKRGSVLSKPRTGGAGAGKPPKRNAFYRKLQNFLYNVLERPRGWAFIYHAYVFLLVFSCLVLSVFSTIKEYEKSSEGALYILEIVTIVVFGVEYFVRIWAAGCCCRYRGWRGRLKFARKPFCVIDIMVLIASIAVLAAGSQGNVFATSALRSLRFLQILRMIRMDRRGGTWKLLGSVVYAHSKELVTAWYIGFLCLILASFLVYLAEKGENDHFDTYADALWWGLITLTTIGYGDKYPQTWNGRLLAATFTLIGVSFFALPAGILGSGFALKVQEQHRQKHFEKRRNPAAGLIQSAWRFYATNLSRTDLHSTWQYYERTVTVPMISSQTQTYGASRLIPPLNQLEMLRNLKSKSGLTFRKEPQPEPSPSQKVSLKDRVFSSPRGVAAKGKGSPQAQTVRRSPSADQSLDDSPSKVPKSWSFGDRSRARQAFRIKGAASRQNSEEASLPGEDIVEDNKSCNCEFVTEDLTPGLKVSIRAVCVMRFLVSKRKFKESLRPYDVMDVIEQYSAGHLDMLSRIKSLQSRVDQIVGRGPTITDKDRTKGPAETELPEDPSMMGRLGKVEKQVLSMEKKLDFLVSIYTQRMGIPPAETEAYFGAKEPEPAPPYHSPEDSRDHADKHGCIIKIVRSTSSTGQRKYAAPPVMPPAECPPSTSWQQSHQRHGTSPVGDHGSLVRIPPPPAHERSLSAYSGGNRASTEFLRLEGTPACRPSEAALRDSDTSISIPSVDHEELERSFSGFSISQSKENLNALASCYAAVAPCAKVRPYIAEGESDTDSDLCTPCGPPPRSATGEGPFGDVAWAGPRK
# KCNQ2 inh baseline: further read-out of KCNQ2 inh, marked with its call; B-score; measured here: initial fluorescence intensity artifact check;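 brightness before thallium and not channel activity; 0 = typical well and far values either way flag optical interference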
# Starred values were filed as active, the others as inactive; i = inactive. An excerpt. The share of hits here may be higher or lower than overall.
# Preview:
SMILES,KCNQ2 inh,KCNQ2 inh baseline
C=CCNC(=O)NC(=O)COC(=O)[C@H](C)NS(=O)(=O)c1c(C)c(C)cc(C)c1C,i,0.02
Cc1c(Cl)cccc1NCC(=O)Nc1ccc(Cl)cc1F,-6.8*,-0.41*
COc1ccc(CCc2nnc(CCC(=O)NCc3cnc4ccccn34)o2)cc1,i,1.7
COc1ccc(-c2noc(N3CCC(C(=O)NCc4ccc(Cl)cc4)CC3)n2)cc1,i,-0.05

# The listing, previewed entries included:
SMILES,KCNQ2 inh,KCNQ2 inh baseline
C=CCNC(=O)NC(=O)COC(=O)[C@H](C)NS(=O)(=O)c1c(C)c(C)cc(C)c1C,i,0.02
Cc1c(Cl)cccc1NCC(=O)Nc1ccc(Cl)cc1F,-6.8*,-0.41*
COc1ccc(CCc2nnc(CCC(=O)NCc3cnc4ccccn34)o2)cc1,i,1.7
COc1ccc(-c2noc(N3CCC(C(=O)NCc4ccc(Cl)cc4)CC3)n2)cc1,i,-0.05
O=C(CN1C(=O)C2CCCCC2C1=O)Nc1cc(C(F)(F)F)ccc1N1CCCC1 (stereo unspecified),i,0.18
CCCCn1c(N)c(N(CCOC)C(=O)CN(C)S(=O)(=O)c2ccc(C)cc2)c(=O)[nH]c1=O,i,-0.18
COc1ccccc1NC(=O)N1CCCC1C(=O)NCc1ccc2c(c1)OCO2 (stereo unspecified),i,-1.2
Cc1ccccc1NC(=O)COc1ccc2c(c1)OC(C)(C)CC2=O,i,0.25
COCCCN(C(=S)NC(=O)C12CC3CC(CC(C3)C1)C2)c1c(N)n(Cc2ccccc2)c(=O)[nH]c1=O,i,0.97
Cc1oc(-c2ccccc2Cl)nc1CS(=O)CC(=O)NC1CC1 (stereo unspecified),i,1.2
COc1ccc(OCCn2ccnc2C)cc1,i,-0.06
CCOc1ccc(N(C(=O)CNC(=O)c2ccco2)C(C(=O)NC2CCCC2)c2ccncc2)cc1 (stereo unspecified),i,0.68
Cc1ccc(-c2c3c(=O)n(C)c(=O)n(C)c3cn2Cc2ccccc2)cc1,i,-0.59
Cc1c(C#N)c2ccccc2n1C,i,0.81
c1ccc(-c2nc(N3CCNCC3)nc3ccccc23)cc1,i,0.6
COc1cccc(CNC(=O)c2cc(S(=O)(=O)N3CCOCC3)cn2C)c1,i,-1.2
Oc1ccc(C(c2nnnn2C2CCCCC2)N2CCOCC2)cc1 (stereo unspecified),i,-1.5
CC(C)N1CC23C=CC(O2)C(C(=O)OCc2ccccc2)C3C1=O (stereo unspecified),i,0.6
O=C1c2ccccc2C(=O)c2c1cccc2-n1nnc2ccccc21,i,0.75
O=C(Nc1nc(-c2cccc([N+](=O)[O-])c2)cs1)C(c1ccccc1)c1ccccc1,i,-0.53
O=C(Nc1ccnn1C1CCN(Cc2ccc(CO)o2)CC1)c1ccc2c(c1)OCO2,i,-0.88
COc1ccccc1CN(C(=O)c1ccco1)C(C(=O)NC1CCCC1)c1ccncc1 (stereo unspecified),i,-1.3
Cc1nc2ccc(S(=O)(=O)NCC(=O)NCc3ccc4c(c3)OCO4)cc2s1,i,2.4
CC(C)CCNC(=O)[C@H](CSCc1ccccc1)N1Cc2ccccc2C1=O,i,1.7
CCn1ncc(Br)c1C(=O)Nc1cc(C)ccc1F,i,1.2

# Another view of part of the listing above.
# Order of results – KCNQ2 inh | KCNQ2 inh baseline
> COCCCN(C(=S)NC(=O)C12CC3CC(CC(C3)C1)C2)c1c(N)n(Cc2ccccc2)c(=O)[nH]c1=O
→ i | 0.97
> Cc1oc(-c2ccccc2Cl)nc1CS(=O)CC(=O)NC1CC1 (stereo unspecified)
→ i | 1.2

# Next results follow:
SMILES,KCNQ2 inh,KCNQ2 inh baseline
CO/N=C/C(NC(=O)c1ccc(C(F)(F)F)cc1)C(=O)OC (stereo unspecified),i,1.6
O=C1c2ccccc2C(=O)N1Cc1cccnc1,i,0.96
N#C/C(=C\c1ccc(N2CCOCC2)o1)C(=O)NCC1CCCO1 (stereo unspecified),i,13
NC(=O)CC(NC(=O)Cc1cccc2ccccc12)c1ccc(N2CCC(N3CCCCC3)CC2)c([N+](=O)[O-])c1 (stereo unspecified),i,-0.04
Cc1ccnc(Cc2ccccc2)n1,i,-0.13
CCOC(OCC)P(=O)(c1ccccc1)c1ccccc1,i,1.8
O=[N+]([O-])c1ccc(N2CCCC2)cc1NCc1ccccc1,i,-1.4
Clc1ccc(-c2nc3ccccn3c2CN2CCSCC2)cc1,i,-0.69
O=C(c1ccc([N+](=O)[O-])s1)N1CCN(c2cccc(Cl)c2)CC1,i,1.6
CC(C)N(Cc1nc(-c2ccccc2)no1)C(=O)CN1C(=O)c2ccccc2C1=O,i,-0.59
Cc1ccc(-c2ccc(OC(=O)c3ccc(=O)[nH]c3)c(C)c2)cc1,i,-0.55
COc1ccc(NC(=O)CN(C)CC(=O)Nc2cccc(C(C)=O)c2)cc1,i,-0.33
COc1ccccc1N1CCN(CCN(C(=O)C2CCCCC2)c2ccccn2)CC1,i,-0.37
CCc1cccc(CC)c1-n1c(SCC(=O)N2CCc3ccccc3C2)nnc1-c1cccnc1,i,-0.21
COc1ccc(C(=O)/C=C/c2ccccc2)c(OC)c1,i,-0.16
Cc1cccc(C)c1NC(=O)C(c1ccccc1)N1CCN(C(=O)c2ccco2)CC1 (stereo unspecified),i,-0.77
Cc1cc(Nc2ccccc2)nc2cc(O)ccc12,i,-2.1
Nc1ccccc1C(=O)Nc1cccc2ccccc12,i,-0.07
CCN(CC)CCCNC(=S)N1CCN(c2nc(-c3ccc(F)cc3)cs2)CC1,i,0.03
COc1ccc(S(=O)(=O)Nc2ccc3c(c2)OCO3)cc1C,i,0.5
COc1ccc(-c2n[nH]c(C)c2-c2ccc(OC)c(OC)c2)c(O)c1,i,0.56
O=C(NCc1ccccc1)[C@]1(C(F)(F)F)C[C@H](CCc2ccccc2)CCCO1,i,-1.5
Cc1ccc(S(=O)(=O)c2nc(-c3ccccc3Br)oc2N(C)C)cc1,i,-1.2
O=C(NCCO)c1ccc2nc(-c3ccco3)c(-c3ccco3)nc2c1,i,1.2
CCOc1ccc(OCc2ccc(C(=O)N3CCCC3)o2)cc1,i,-0.78
SMILES,KCNQ2 inh,KCNQ2 inh baseline
CC1CCCCC1NC(=O)/C(C#N)=C/c1ccc(OCC(N)=O)cc1 (stereo unspecified),i,-0.12
COc1cccc(N2CCN(Cc3nc(N)nc(Nc4ccccc4)n3)CC2)c1,i,-0.4
O=C(O)COc1ccccc1/C=N/NC(=O)CN1CCN(Cc2ccccc2Cl)CC1,i,-3.1
Cc1cccc(NS(=O)(=O)c2ccc(-c3cnc(C4CC4)o3)cc2)c1C,i,0.15
COC(=O)Cn1ncn2c(cc3oc(C)cc32)c1=O,i,-1
COc1cc(C(=O)Oc2cccc(C)c2)cc(OC)c1OC,i,-0.13
COc1cc(/C=C2\NC(=S)NC2=O)ccc1OCc1cccc(C(=O)O)c1,i,-0.06
CC(=O)Nc1cc(NC(C)=O)cc(C(=O)OCC(=O)c2ccc3c(c2)OCO3)c1,i,0.05
CC(=O)NCCCC(=O)NC(CCC(=O)OCc1ccccc1)C(=O)OCc1ccccc1 (stereo unspecified),i,-0.08
CC12CCC(C(=O)N(CCCCN3CCN(c4ccccn4)CC3)C1=O)C2(C)C (stereo unspecified),i,1.1
COc1cc(/C=C/C(=O)O)cc(S(=O)(=O)Nc2ccc3nc(SC)sc3c2)c1OC,i,-1.9
COc1ccc(C)cc1-n1nnnc1SCC(=O)NNC(=O)c1ccc([N+](=O)[O-])cc1,i,-0.8
C#CC(C)(C)NC(=O)c1ccc(-c2ccccc2F)cc1,i,-0.08
O=C(NCCCNC(=O)c1ccc(Cl)cc1Cl)c1cnccn1,i,1.3
CCN(CC)C(=O)Cn1cc(C(=O)C(=O)NCc2ccccn2)c2ccccc21,i,2.2
N#CC1=C(N)C(C#N)(C#N)[C@H](c2ccoc2)[C@H]2CN(Cc3ccccc3)CC=C12,i,16
Cc1nnc2ccc(-c3ccc(NC(=O)c4cccnc4Cl)cc3)nn12,i,0.03
O=C(CNC(=O)c1ccccc1)Oc1cccc(Cl)c1,i,-0.45
Cc1cccc(C)c1NC(=O)C1CCCN1C(=O)OC(C)(C)C (stereo unspecified),i,1.8
CCNC(=O)Cc1ccc(NS(=O)(=O)c2ccc(F)cc2)cc1,i,0.87
C=CCCCCCCCCc1nc(=S)[nH][nH]1,i,0.96
O=C(O)C1C2C=CC(C2)C1C(=O)NCc1ccco1 (stereo unspecified),i,1.6
COc1ccc(OC)c(CN2CCN(Cc3cc(=O)oc4cc(O)ccc34)CC2)c1,i,-1
COc1ccc(C2(CNC(=O)c3ccc(N)cc3)CCCC2)cc1,i,0.64
COc1cccc(C(=O)NC(C)c2ccc(Br)cc2)c1 (stereo unspecified),i,8.2

# Part of the list above in a different format.
CC(=O)NCCCC(=O)NC(CCC(=O)OCc1ccccc1)C(=O)OCc1ccccc1 (stereo unspecified)
  KCNQ2 inh: i
  KCNQ2 inh baseline: -0.08

CC12CCC(C(=O)N(CCCCN3CCN(c4ccccn4)CC3)C1=O)C2(C)C (stereo unspecified)
  KCNQ2 inh: i
  KCNQ2 inh baseline: 1.1

COc1cc(/C=C/C(=O)O)cc(S(=O)(=O)Nc2ccc3nc(SC)sc3c2)c1OC
  KCNQ2 inh: i
  KCNQ2 inh baseline: -1.9

COc1ccc(C)cc1-n1nnnc1SCC(=O)NNC(=O)c1ccc([N+](=O)[O-])cc1
  KCNQ2 inh: i
  KCNQ2 inh baseline: -0.8

# Carrying on.
SMILES,KCNQ2 inh,KCNQ2 inh baseline
O=[N+]([O-])c1ccc(-c2nnc(CNC3CCCC3)o2)cc1,i,-0.09
COc1cc(C2C(C#N)=C(N)N(Nc3ccccc3)C3=C2C(=O)CC(C)(C)C3)ccc1OCc1ccccc1 (stereo unspecified),i,1.2
Cc1cc(-c2sccc2C)nc(-n2cccc2)n1,i,-0.73
COCCN(C(=O)CSc1nc(-c2ccccc2)cn1N)c1c(N)n(Cc2ccccc2)c(=O)[nH]c1=O,i,-1.2
COc1ccc(Cc2nnc(NC(=O)CS(=O)(=O)c3ccc(C)cc3)s2)cc1OC,i,-0.86
COc1ccccc1NC(=S)NNC(=O)c1nn(C)cc1Cl,i,0.32
CCOP(=O)(OCC)/C(=N/OC(=O)c1ccccc1C)C(N)=O,i,-0.22
CC(OC(=O)c1nc(Cl)ccc1Cl)C(=O)c1ccccc1 (stereo unspecified),i,-0.57
CCN1CCN(C(=O)C2CCN(c3nnc(C)c4c(C)n(-c5ccc(C)cc5)nc34)CC2)CC1,i,-0.5
O=C(CCN1CCCCC1)Nc1ccccc1,i,3.5
CCN(CC(=O)N1CCCCCC1)S(=O)(=O)c1ccc(Cl)cc1,i,1.4
Cc1c(N=Cc2ccccn2)c(=O)n(-c2ccccc2)n1C,i,-2.1
CCOC(=O)N1CCN(C(=O)C2CCN(S(=O)(=O)N3CCCC3)CC2)CC1,i,1.1
Cc1cc2nc(N3C(=O)CNC3=S)sc2cc1C,i,-1.9
NC(=O)C1CCN(C(=O)/C(=C/c2ccco2)NC(=O)c2ccccc2)CC1,i,-0.46
COc1ccc(CN2C(=NC(=O)C3CCCO3)SC3CS(=O)(=O)CC32)cc1OC (stereo unspecified),i,0.3
Cc1ccc(S(=O)(=O)N2CCC(C(=O)NCCc3ccc(S(N)(=O)=O)cc3)CC2)cc1,i,0.04
O=C(NCc1cccs1)Nc1cccs1,i,-0.16
Cc1ccc2[nH]c3c(c2c1)CCCC3NC(=O)CCl (stereo unspecified),i,1.2
COc1ccc(S(=O)(=O)N(CCC(N)=O)Cc2ccco2)cc1OC,i,-0.33
CCN1CCN(C(=O)CS(=O)Cc2nc(-c3ccc(OC)cc3)oc2C)CC1 (stereo unspecified),i,-1.2
NS(=O)(=O)c1ccc(CNS(=O)(=O)c2ccc3c(c2)OCCO3)cc1,i,-0.48
CCOc1cccc(/C(O)=C2/C(=O)C(=O)N(CCOC)C2c2ccncc2)c1 (stereo unspecified),i,0.58
CCOC(=O)CC(=O)Nc1ccccc1C(=O)O,i,0.63
CCOC(=O)c1cnc2ccc(OCC)cc2c1NCc1ccccc1OC,i,1.5
SMILES,KCNQ2 inh,KCNQ2 inh baseline
O=C(Nc1ccccc1)c1ccc(NC2CCCCC2)c(S(=O)(=O)N2CCOCC2)c1,i,1.4
O=C(Nc1ccc2c(c1)nc1n2CCN(Cc2ccccc2)C1)c1cccs1,i,-2
CCc1nnc(NC(=O)C2Cc3ccccc3CN2S(=O)(=O)c2c(C)c(C)cc(C)c2C)s1 (stereo unspecified),i,-1.4
CN1CCC[C@H]1c1cccnc1,i,-0.32
O=S(=O)(c1ccc(Cl)nc1)N1CCCc2ccccc21,i,0.5
Cn1c(=O)oc2cc(S(=O)(=O)NC3CCN(Cc4ccccc4)CC3)ccc21,i,-0.03
CCN(C(=O)CN1C(=O)S/C(=C\c2ccc(Cl)cc2)C1=O)C1CCS(=O)(=O)C1 (stereo unspecified),i,1.4
O=C(CS(=O)(=O)c1cn(CC(=O)N2CCOCC2)c2ccccc12)Nc1ccccc1F,i,0.95
c1ccc(CCCOCCC2CO2)cc1 (stereo unspecified),i,0.32
O=S(=O)(c1ccccc1)C(/C=N\O)/C=C/c1ccccc1 (stereo unspecified),-6.3*,0.11*
S=c1[nH]nc(-c2ccncc2)n1/N=C/c1cn(-c2ccccc2)nc1-c1ccccc1,i,-0.16
O=C1C(=O)N(CCCN2CCOCC2)C(c2ccc(Cl)cc2)/C1=C(\O)c1ccc2c(c1)OCCO2 (stereo unspecified),i,1.5
COc1ccc(OCC(=O)Nc2c(C(=O)N(CCN(C)C)Cc3ccco3)oc3ccccc23)cc1,i,1.2
OCC1CCCCN1CC(O)COC(c1ccc(F)cc1)c1ccc(F)cc1 (stereo unspecified),i,-1.2
NC(=O)c1ccc(-n2nnnc2SCC(=O)Nc2ccccc2F)cc1,i,0.02
O=C(Nc1ccc(C(=O)N2CCCCC2)cc1)C1CCCCC1,i,0.18
O=c1[nH]c(CNCc2cccnc2)nc2ccccc12,i,2.2
O=C(/C=N/O)NCCCN1CCOCC1,i,1.1
O=C(/C=C/c1ccco1)N1CCc2ccccc21,i,0.79
